Vaccinia Venus – inhibitors of vaccinia virus (Venus reporter); Vaccinia virus Venus reporter expression, fluorescence; Potency, µM (titrated, usually from 36.5 µM), for inactives: top-dose activity change, negative = inhibition, usual class: inhibitors; 330,000 compounds, 0.46% hits; AID 720580; active means well fitted inhibition curve with a large enough effect; inconclusive means small, poorly fitted or top-dose-only effect; inactive means no such curve, though single readings can be large or run the other way; tested in A549 cells; note: nearly all actives have a fitted effect of over 30% in size; inactives centre near -10
VACV mCherry inh – inhibitors of vaccinia virus infection (mCherry reporter signal); Vaccinia virus mCherry reporter infection, fluorescence; about a quarter of the inactives have no number; Potency, µM (series often up to 36.5 µM), inactives show at the top dose activity change, negative = inhibition, most hits filed as inhibitors; 310,000 compounds, 0.63% hits; AID 720579; active = well fitted inhibition curve with a large enough effect; inconclusive = small, poorly fitted or top-dose-only effect; inactive = no such curve, though single readings can be large or run the other way; tested in A549 cells; note: nearly all actives have a fitted effect of over 35% in size; inactives centre near -10
An asterisk follows results filed as active; i = inactive; ? = inconclusive; nt = not tested or not shown; & = joins results of further samples; [ ] = remark or other dose. % is set by controls: 0 for no effect and ±100 for the full control effect; potency is the fitted concentration of half-maximal effect.

Start of the listing, in advance, 2 compounds:
SMILES	Vaccinia Venus	VACV mCherry inh
O=S(=O)(Nc1ccc(-c2ccc(N3CCCCCC3)nn2)cc1)c1ccc(C(F)(F)F)cc1	-14%	-14%
O=C(c1ccccc1NS(=O)(=O)c1ccccc1[N+](=O)[O-])N1CCCC1	-9%	-15%

The listing (from the top)
SMILES	Vaccinia Venus	VACV mCherry inh
O=S(=O)(Nc1ccc(-c2ccc(N3CCCCCC3)nn2)cc1)c1ccc(C(F)(F)F)cc1	-14%	-14%
O=C(c1ccccc1NS(=O)(=O)c1ccccc1[N+](=O)[O-])N1CCCC1	-9%	-15%
Cc1ccc(Cl)c(Nc2ccccc2C(=O)O)c1Cl	-19%&-2%&-9%	-11%&-15%
CC1=C(C(=O)N2CCCCCC2)CC(CC(=O)NCCCCc2ccccc2)C(=O)N1CCC1=CCCCC1 (configuration not stated)	-22%	-19%
CCN1CCN(Cc2ccc(NC(=O)c3cc(NC(=O)c4cnnc5ccccc45)cc(OC)c3)cc2C(F)(F)F)CC1	10µM*	?
COc1ccccc1CNC(=O)c1ccc(N2CCCC2)c(NC(=O)NCCC(C)C)c1	-9%	-10%
COc1ccc(O)c(C(c2c(C)[nH][nH]c2=O)c2c(C)[nH][nH]c2=O)c1	5%	-1%
NC(=O)c1ccsc1NC(=O)CSc1ccccc1F	-8%	-2%
CC(Oc1ccccc1)C(=O)Nc1ccc(C(=O)OCc2cc(=O)n3nc(C(C)C)sc3n2)cc1 (configuration not stated)	-11%	-16%
COc1ccc(S(=O)(=O)NC2CC(=O)N(c3cccc(F)c3)C2)cc1OC (configuration not stated)	-6%	-12%
Cc1nc(SCc2ccc(F)cc2)c([N+](=O)[O-])[nH]1	2%	-11%
Cc1nc(NCC2CCCO2)nc2c1C(=O)CC(C)C2 (configuration not stated)	-16%	nt
COc1ccc2occ(CC(=O)Nc3ccc(S(=O)(=O)Nc4nccc(C)n4)cc3)c2c1	-4%	-3%
CCOCCCNC(=S)Nc1ccc(Br)cc1Cl	-2%	-2%
CCC(=O)N[C@@H]1CC[C@@H](CCNC(=O)Nc2ccc(F)cc2)O[C@@H]1CO	1%	i
CCCCNC(=O)C(CC)(ONc1ccccc1C(F)(F)F)c1ccccc1 (configuration not stated)	-10%	-10%
Cc1ccc(F)c(S(=O)(=O)NC(=O)C2(C)CCN2C(=O)C2(c3ccc(Cl)cc3)CCC2)c1 (configuration not stated)	-25%	-11%
CN(NC(=O)c1ccc(Cl)cc1)c1nc(-c2ccccc2)nnc1C(F)(F)F	-12%	-8%
COc1ccccc1-n1cc(CN2CCN(C3CCCC3)C(CCO)C2)cn1 (configuration not stated)	-11%	-2%
Cc1ccc(C)c(NC(=O)CCC(=O)NNC(=S)Nc2ccccc2)c1	-12%	-10%
O=C(Nc1ccc(Cl)cc1Cl)C1CCC(=O)N1Cc1ccccc1Cl (configuration not stated)	?	nt
O=C(NC1CCS(=O)(=O)C1)c1cccc(Cl)c1 (configuration not stated)	-4%	-17%
Cc1ccc(NC(=O)/C(C#N)=C/c2ccc(C)o2)cc1	-7%	-8%
CC(=O)N/C(=C\c1cccc([N+](=O)[O-])c1)C(=O)NC1CCCCC1	-9%	i
CCOC(=O)c1sc(NC(=O)CSc2nnnn2-c2ccccc2)nc1C	-14%	-5%
Clc1ccc(CSc2nnc3ccccn23)c(Cl)c1	-8%	i
N#Cc1c(C(F)(F)F)cc(-c2cccs2)nc1SCC(=O)Nc1ccccc1F	-5%	-2%
COc1ccc(C(=O)c2ccc(Cl)c([N+](=O)[O-])c2)cc1	-28%	-4%
O=C(NCc1cccnc1)c1nnc(Cc2ccc(F)cc2)o1	-11%	-2%
CCOCCCn1c(=NC(C)=O)c(C#N)cc2c(=O)n3cccc(C)c3nc21	-8%	-4%
O=C(Cc1ccc([N+](=O)[O-])cc1)Nc1cccc(C(=O)N2CCOCC2)c1	1%	-3%
O=C(CCN1CCCCC1)N=Nc1c(O)[nH]c2ccccc12	1%	i
CC1CCCCN1S(=O)(=O)c1ccc(C(=O)Nc2nnc(-c3cccs3)o2)cc1 (configuration not stated)	?	?
CCOC(=O)C1=C(Nc2ccccc2)CC(C)(O)C(C(=O)OCC)C1c1ccc(Br)cc1 (configuration not stated)	-24%	-28%
Cc1ccc(S(=O)(=O)N2[C@@H](c3ccc(F)cc3)C(C(=O)O)=CC[C@H]2c2ccc(C(C)C)cc2)cc1	-8%	19%
CC(C)C[C@H]1CNC(=O)C(=O)N1C[C@@H]1CCCN1C[C@H](Cc1ccccc1)N1C[C@H](CC(C)C)N(CC2CCCCCC2)C(=O)C1=O	1%	-11%
COC(=O)c1cc(Br)ccc1NC(=O)Nc1ccc(C)cc1	-23%	i
C#Cc1cccc(Nc2ncnc3cc(OC)c(OC)cc23)c1	?	?
Cc1nc(-c2ccc(Br)cc2)ccc1C(=O)O	-1%	i
COc1ccc(S(=O)(=O)Nc2ccc3c(c2)n(C)c(=O)n3C)cc1OC	-7%	-4%
CC1(C)Nc2ccccc2N(Cc2ccc([N+](=O)[O-])cc2)C1=O	-14%	-23%
Cc1cc(C)n(CC(=O)Nc2ccc(N3CCOCC3)c(Cl)c2)c(=O)c1C#N	0%	?
Cc1cc2c(cc1C)-c1c(ssc1=Nc1ccc(S(N)(=O)=O)cc1)C(C)(C)N2	?	-17%
CC(C)NS(=O)(=O)c1cccc2nsnc12	-15%	nt
CCCc1nnc(SCC(=O)Nc2nccs2)o1	-16%	i
CC1(C)CC(n2c(NCCO)nc3c(c2=O)C2(CCCC2)Cc2ccccc2-3)CCO1 (configuration not stated)	-19%	-21%
Nc1ccc(C(=O)Nc2ccc(NC(=O)c3ccco3)c(O)c2)cc1	-10%	-6%
CNS(=O)(=O)c1cc(O)c2c(S(=O)(=O)NC)cccc2c1	-17%	-12%
CC(C)c1ccc(OCC(=O)Nc2ccc(OC(F)(F)F)cc2)cc1	-11%	-11%
CCCC(=O)NC(c1ccccc1Cl)c1ccc2cccnc2c1O (configuration not stated)	?	1µM*

The listing continues.
SMILES	Vaccinia Venus	VACV mCherry inh
CCc1nnc(NS(=O)(=O)c2ccc(NC(=S)NC(=O)c3cccs3)cc2)s1	-1%	-14%
Cc1cccc(-n2cc[nH]c2=S)c1	-6%	i
C/C(=N\NC(=O)C1CCCC1)c1ccc(NC(=O)C(F)(F)F)cc1	-3%	6%
COc1ccccc1NC(=O)c1[nH]c(C)c(C(C)=O)c1C	-13%	nt
O=C(CN1CCN(C(=O)CNC(=O)c2ccc(-c3ccccc3)cc2)CC1)Nc1ccccc1Cl	?	?
Cc1cc(C(=O)COc2cc(F)ccc2[N+](=O)[O-])c(C)n1C1CC1	-15%	-16%
CC(=O)c1c(C)[nH]c(C(=O)NCc2ccccc2)c1C	-16%	nt
CCOC(=O)c1ccccc1NC(=O)Cn1c(=O)n(CCC(=O)N2CCc3ccccc3C2)c(=O)c2ccccc21	-13%	-20%
COc1ccccc1/C=C/C(=O)NC(=S)NCC1CCCO1 (configuration not stated)	-9%	-7%
O=C(CSc1ccsc1[N+](=O)[O-])Nc1cc(F)ccc1F	-15%	-15%

15 entries from above, sorted by length of the SMILES, low to high:
SMILES	Vaccinia Venus	VACV mCherry inh
Cc1cccc(-n2cc[nH]c2=S)c1	-6%	i
CCCc1nnc(SCC(=O)Nc2nccs2)o1	-16%	i
CC(C)NS(=O)(=O)c1cccc2nsnc12	-15%	nt
COc1ccccc1/C=C/C(=O)NC(=S)NCC1CCCO1 (configuration not stated)	-9%	-7%
CCCC(=O)NC(c1ccccc1Cl)c1ccc2cccnc2c1O (configuration not stated)	?	1µM*
COc1ccccc1NC(=O)c1[nH]c(C)c(C(C)=O)c1C	-13%	nt
CC(C)c1ccc(OCC(=O)Nc2ccc(OC(F)(F)F)cc2)cc1	-11%	-11%
Nc1ccc(C(=O)Nc2ccc(NC(=O)c3ccco3)c(O)c2)cc1	-10%	-6%
C/C(=N\NC(=O)C1CCCC1)c1ccc(NC(=O)C(F)(F)F)cc1	-3%	6%
Cc1cc(C(=O)COc2cc(F)ccc2[N+](=O)[O-])c(C)n1C1CC1	-15%	-16%
CCc1nnc(NS(=O)(=O)c2ccc(NC(=S)NC(=O)c3cccs3)cc2)s1	-1%	-14%
CC1(C)CC(n2c(NCCO)nc3c(c2=O)C2(CCCC2)Cc2ccccc2-3)CCO1 (configuration not stated)	-19%	-21%
Cc1cc2c(cc1C)-c1c(ssc1=Nc1ccc(S(N)(=O)=O)cc1)C(C)(C)N2	?	-17%
O=C(CN1CCN(C(=O)CNC(=O)c2ccc(-c3ccccc3)cc2)CC1)Nc1ccccc1Cl	?	?
CCOC(=O)c1ccccc1NC(=O)Cn1c(=O)n(CCC(=O)N2CCc3ccccc3C2)c(=O)c2ccccc21	-13%	-20%

Other results
SMILES	Vaccinia Venus	VACV mCherry inh
CC1=C(C(=O)OC2CCCC2)C(c2coc3ccccc3c2=O)C2=C(CC(C)(C)CC2=O)N1 (configuration not stated)	-30%	i
Cc1ccc(C)c(OCc2cc(C(=O)N3CC[C@@H]4CCCC[C@H]4C3)no2)c1	3%	-5%
Cc1cc(=O)oc2cc(OCC(=O)OCC(=O)N3CCC(C)CC3)ccc12	-20%	-15%
COc1ccccc1/C=C1\SC(=O)N(CCC(=O)NNC(=O)c2ccccc2Cl)C1=O	0%	-5%
CSCCC(NC(=O)c1ccccc1C)C(=O)O (configuration not stated)	-6%	-2%
COc1ccc([C@H]2C[C@@H](n3cc(COC(=O)c4ccccc4)nn3)[C@H](O)CN2Cc2cccs2)cc1	-2%	-9%
CN(C[C@H](Cc1ccccc1)N(C[C@H](CC1CCCCC1)N(CCc1ccccc1)N=O)N=O)N=O	-11%	i
CCCCNc1c(-c2ccc(OC)c(SC3CCCCC3)c2)nc2cnccn12	?	?
C[C@H]1CCC/C=C/[C@@H]2C[C@H](O)C[C@H]2[C@@H](O)/C=C/C(=O)O1	?	-6%
COC(=O)c1cc(NS(=O)(=O)c2ccc3c(c2)OCCO3)ccc1Cl	9%	11%
COc1cc(C(=O)COC(=O)C2CCCCC2)cc(OC)c1OC	1%	-11%
CCOc1ccc(C(O)(c2ccccc2)C(CN2CCCC2)c2ccccc2)cc1 (configuration not stated)	-21%	i
COc1cccc(C(C)=NNc2ccc([N+](=O)[O-])cc2[N+](=O)[O-])c1OC	-4%	i
Cc1cccc(NC(=O)c2cccc(NC(=O)Cc3cccs3)c2)c1	-6%	-11%
Cc1cccc(NC2=NC(C)(C)N=C(N)N2)c1	1µM*	?
COc1ccc2c3c([nH]c2c1)C1(NCC3)C(=O)Nc2ccccc21 (configuration not stated)	9%	-8%
CCCC(=O)NCCc1nc2ccccc2n1Cc1c(F)cccc1Cl	3%	-12%
COc1ccc(S(=O)(=O)N2CCCOC2CNC(=O)C(=O)NCCc2ccco2)cc1OC (configuration not stated)	-13%	-21%
COc1cccc(CNc2ncc(Br)cc2Br)c1O	-21%	nt
COc1cc(/C=N/O)cc(Br)c1OCC(=O)NCc1ccccc1	-9%	-2%
CN(Cc1ccccc1)C(=O)COC(=O)c1ccc(S(=O)(=O)N(C)C)cc1	1%	i
C=C(C(=O)c1ccccc1)C(c1ccccc1)C(C)C(=O)c1ccccc1 (configuration not stated)	?	?
Cc1cc(C(=O)OCC(=O)Nc2ccc(F)cc2[N+](=O)[O-])c2ccccc2n1	-12%	-4%
Cc1ccc(NCCCn2cnc(C(=O)Nc3ccc(C)c(C)c3)n2)cc1C	-21%	?
CC1=Nc2cc(Cl)ccc2Oc2ccccc21	-2%	0%
CN(Cc1ccccc1)C(=O)COC(=O)c1ccccc1NS(=O)(=O)c1cccc(N)c1	-6%	-21%
CC(C)(C)NC(=O)C(c1ccnc2ccccc12)n1c(=O)c(-c2ccco2)nc2ccccc21 (configuration not stated)	-6%	-3%
COc1ccc(S(=O)(=O)N(C)CC(=O)Nc2ccccc2SC)cc1Cl	-13%	nt
COC(=O)[C@]12CCCCC=C1N(Cc1cccc3ccccc13)C(=O)[C@H](CC(=O)N1CCCCC1)C2	12%	36%[activator]
COCCN=C1Sc2nc3ccc(C)cc3cc2CN1Cc1cccs1	-18%	-26%
Cc1ccc(-c2cc(C(=O)NCc3ccc4c(c3)OCO4)no2)cc1	7%	-15%
O=C(CCc1ccccc1)NCCc1cccs1	-5%	i
Cc1ccn2c(Nc3ccc(F)cc3)c(-c3ccccn3)nc2c1	?	?
CCCNC(=O)C(Cc1ccccc1)NC(=O)Cc1ccccc1 (configuration not stated)	-9%	i
CCOC(=O)COc1c(Cl)cc(C2NC(=S)NC(c3ccccc3)=C2C(C)=O)cc1OC (configuration not stated)	-9%	i
O=C(NC(Cc1c[nH]c2ccccc12)C(=O)O)/C(=C/c1ccc2c(c1)OCO2)NC(=O)c1ccccc1 (configuration not stated)	2%	i
COc1ccc(CNC(=O)c2cc(-c3ccc(C)c(C)c3)n[nH]2)cc1	-12%	-16%
CCn1ncc(C(=O)Nc2ccccc2C)c1C	-17%	i
COc1ccc(C2C(C#N)=C(C)NC(C)=C2C(=O)OC(C)C)c(OC)c1 (configuration not stated)	-15%	?
CCOC(=O)[C@]12Cc3cc(OC)ccc3[C@H]1N(CCC(=O)OC)C(=O)c1cc(OC)ccc12	-15%	-5%
CC1CCCN(Cc2csc(N)n2)C1 (configuration not stated)	-19%	-7%
COc1ccc2cc(C(c3nnnn3C(C)(C)C)N3CCSCC3)c(=O)[nH]c2c1 (configuration not stated)	-6%	-11%
CN(C)/C(Cn1cncn1)=C1/N=C(c2ccccc2)OC1=O	-19%	-3%
CC(=O)c1ccc(C#CC(C)(C)O)s1	-13%	nt
O=c1cc(N2CCOCC2)c2ccccc2o1	-15%	i
Nc1nc(SCC(=O)Nc2cc(-c3ccccc3)nn2-c2ccccc2)n[nH]1	-17%	-27%
COc1ccc(OCC(=O)N(Cc2ccc(C)o2)C2CCS(=O)(=O)C2)cc1 (configuration not stated)	-3%	-7%

Compound activity from PubChem.
